# Screening results from PubChem BioAssay.
# gsp agonist = agonists of gsp mutant (McCune-Albright syndrome); gsp mutant cells, cAMP HTRF, 30 min; control for the full effect not named in the record; Potency, µM (top dose mostly 76.9 µM), inactives show at the highest dose activation (cAMP increase), usual class: activators; 340,000 compounds, 0.13% hits; AID 624287; active = well fitted activation curve with a large enough effect; inconclusive = small, poorly fitted or top-dose-only effect, or another doubt; inactive = no such curve, though single readings can be large or run the other way; cell line not stated here;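 further: phosphodiesterase inhibitor Ro 20-1724 added with compounds to block cAMP breakdown; potency means the concentration at half of the fitted maximal effect; nearly all actives have a fitted effect of over 60% in size; about a fifth of the inactives were tested at one dose only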
#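 Cells in DMEM/10% FBS with G418 were pretreated with compounds in DMSO plus […] (300 uM stock) for 30 min at 37C. cAMP was measured by HTRF (cAMP-d2 plus anti-cAMP antibody-K) after 30 min at room temperature.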
# CtBP-E1A blk = inhibitors of CtBP/E1A interaction; 340,000 compounds, 0.49% hits; AlphaScreen GST-E1A/His-CtBP binding, 1536-well; active compounds read low; control for the full effect not named in the record; activity change, % (test concentration not listed); in the data active means activity change below about -65%; inconclusive means about -30% to -65%; inactive means above about -30%; further: on the % scale 0 is the no-effect control and ±100 the full control effect
#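 Protein mix (5X: 125 nM each GST-E1A, His-CtBP) was incubated with pinned compound 2 h at 37 deg C in dark, in 50 mM Tris pH 8.0 buffer with 300 mM NaCl. Glutathione donor and nickel acceptor beads followed; AlphaScreen signal read after 1 h.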
# ClpP mod = qHTS Assay for Activators of ClpP. ATP-dependent Clp protease proteolytic subunit (Bacillus subtilis (strain 168)), P80244. 340,000 compounds, 1.9% hits. AID 651965, 2013. Potency, µM (titrated, usually from 57.5 µM), for inactives: top-dose activity change, negative = active. purified B. subtilis ClpP, FRET peptide cleavage, 20 min; active = well fitted falling curve with a large enough effect; inconclusive = small, poorly fitted or top-dose-only effect; inactive = no such curve, though single readings can be large or run the other way; further: potency means the concentration at half of the fitted maximal effect; the source files actives as falling curves though it sought activators and does not explain the sign; nearly all actives have a fitted effect of over 65% in size; many hits overshoot -100%
# Target sequence (P80244 whole entry, looked up): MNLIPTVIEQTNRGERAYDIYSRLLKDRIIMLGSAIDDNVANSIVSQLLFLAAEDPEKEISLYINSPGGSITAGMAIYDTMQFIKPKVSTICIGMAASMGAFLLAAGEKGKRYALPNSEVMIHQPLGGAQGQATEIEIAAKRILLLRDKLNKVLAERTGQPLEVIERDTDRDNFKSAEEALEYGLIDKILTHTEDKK
#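 Buffer: 100 mM Tris/HCl pH8, 100 mM KCl, 0.05% low protease BSA, 2.5% glycerol, 0.01% Tween-20. ClpP 10 microg/mL final; 20 min RT; delta FRET normalized to ADEP and DMSO controls.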
# Sfp PPTase inh = blocks B. subtilis Sfp PPTase activity; Q9F4F7; Biochemical Sfp PPTase activity, qHTS; 310,000 compounds, 3.5% hits; Potency, µM, inactives show max response, negative = inhibition, actives largely listed as inhibitors; active means well fitted inhibition curve with a large enough effect; inconclusive means small, poorly fitted or top-dose-only effect, or another doubt; inactive means no such curve, though single readings can be large or run the other way;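 further: the enzyme is Sfp with the accession as filed and its product quenches rhodamine fluorescence; potency means the concentration at half of the fitted maximal effect; 0% = enzyme reaction without inhibitor and -100% = no enzyme wells; top concentration of the series not given in the record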
#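 Step 1, compound plus 15 nM Sfp-PPTase, 15 min, room temperature. Step 2, add rhodamine-CoA (5 uM) and BHQ-2-YbbR (12.5 uM). Step 3, read 525/598 nm fluorescence at 0 and 30 min.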
# TRPV1 potentiator = human TRPV1 potentiation; AID 540277; TRPV1-expressing cells, Fluo-8 calcium influx, capsaicin EC20 potentiation; host cell line not named in the record; control for the full effect not named in the record; 320,000 compounds, 0.02% hits; potentiation, % at 8.33 µM; active means potentiation above 80%; inconclusive means 30% to 80%; inactive means below 30%; further: 0% is about no effect
# Target sequence (Q8NER1 whole entry, looked up): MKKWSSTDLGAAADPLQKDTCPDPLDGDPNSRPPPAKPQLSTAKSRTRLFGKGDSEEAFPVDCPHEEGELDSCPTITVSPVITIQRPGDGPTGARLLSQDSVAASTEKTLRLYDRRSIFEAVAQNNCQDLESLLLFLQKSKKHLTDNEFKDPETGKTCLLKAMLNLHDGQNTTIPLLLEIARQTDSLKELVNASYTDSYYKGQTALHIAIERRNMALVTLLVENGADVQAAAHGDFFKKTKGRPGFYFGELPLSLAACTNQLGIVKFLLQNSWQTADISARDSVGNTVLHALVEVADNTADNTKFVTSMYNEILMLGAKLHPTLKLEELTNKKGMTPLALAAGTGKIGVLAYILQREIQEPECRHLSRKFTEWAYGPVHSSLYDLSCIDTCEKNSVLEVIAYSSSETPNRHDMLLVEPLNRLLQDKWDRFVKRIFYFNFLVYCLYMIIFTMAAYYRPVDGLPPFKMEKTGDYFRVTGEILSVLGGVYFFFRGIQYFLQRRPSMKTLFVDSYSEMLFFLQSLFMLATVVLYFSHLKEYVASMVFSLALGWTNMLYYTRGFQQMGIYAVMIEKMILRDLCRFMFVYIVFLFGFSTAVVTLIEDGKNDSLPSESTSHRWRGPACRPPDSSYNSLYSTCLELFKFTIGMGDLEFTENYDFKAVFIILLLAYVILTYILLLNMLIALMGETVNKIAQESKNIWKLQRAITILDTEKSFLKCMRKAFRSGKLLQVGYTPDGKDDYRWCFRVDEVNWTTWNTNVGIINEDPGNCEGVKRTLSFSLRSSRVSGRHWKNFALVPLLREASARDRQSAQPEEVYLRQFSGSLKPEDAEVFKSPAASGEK
#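 Fluo-8 calcium influx in TRPV1-expressing cells, kinetic read (ex 480/em 520 nm). Compound added and read 3 min for agonist activity, followed by capsaicin at EC20 final and 2 min further read for enhancement.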
# Menin-MLL FL inh = displaces fluorescein MLL peptide from human menin | FP activity change, % at 61.4 µM | Fluorescence polarization, fluorescein-MLL peptide displacement from menin | AID 1766 | 290,000 tested, under 10 active; inconclusive = falling polarisation curve, or a change in total fluorescence; inactive = total fluorescence flat and polarisation flat or rising; no compound was filed as active; the % refers to the polarisation; negative = inhibition;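 further: % of control where 0% means no effect; inhibitors lower the polarisation; unlabelled MLL peptide was the positive control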
# gsp antagonist = gsp mutant antagonism. gsp-mutant cells, cAMP HTRF, 30 min; control for the full effect not named in the record. AID 624288. 340,000 compounds, 0.4% hits. Potency, µM (titrated, usually from 76.9 µM), for the others: top-dose activity change, negative = inhibition, most hits filed as inhibitors; active = falling curve of any shape with a large fitted effect; inconclusive = falling curve, mostly with a smaller effect; inactive = flat or rising curve; cell line not stated here;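 further: intracellular cAMP measured with PDE inhibitor Ro 20-1724 present during compound exposure; potency means the concentration at half of the fitted maximal effect; on the % scale 0 is the no-effect control and ±100 the full control effect; nearly all actives have a fitted effect of over 65% in size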
#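 G418-selected cells were plated in DMEM/10% FBS for 16-24 h at 37C, then treated with compounds plus the PDE inhibitor […] (300 uM solution added) for 30 min at 37C. Intracellular cAMP was measured by HTRF after 30 min lysis at room temperature.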
# * hit, by the source's call; ? = inconclusive; . = no result given; & = joins results of further samples; [ ] = remark or other dose.
SMILES,gsp agonist,CtBP-E1A blk,ClpP mod,Sfp PPTase inh,TRPV1 potentiator,Menin-MLL FL inh,gsp antagonist
CCCN1CC=C2C(C#N)=C(N)C(C#N)(C#N)C(c3cccc(OC)c3OC)C2C1 (stereo not given),-69%[inhibitor],9,-14%,20%,?,?,-6%
NC(=O)c1cc([N+](=O)[O-])ccc1NCc1ccc(N)cc1,.,-3,0.0%,.,-7,.,-7%
O=C(CCn1c(=O)sc2ccccc21)NC1=NCCS1,-3%,1,-0.1%,-3%,-6,1.1,2%
O=C(Nc1ccc2c(c1)OCO2)[C@@H]1[C@@H]2C(=O)N(C3CCCCC3)C(=O)[C@@H]2C2c3ccccc3C=CN21 (stereo not given in full),.,.,.,-12%,-5,?,.
Cc1ccc(N2CC(C(=O)NC3CCC(C)CC3)CC2=O)cc1 (stereo not given),-7%,3,-1.5%,12%,18,.,16%
O=C(CSC(=S)N1CCOCC1)Nc1nc(-c2ccccc2)c(-c2ccccc2)o1,2%,3,0.4%,29%,-28,-2.0,4%
O=S(=O)(NCc1cccnc1)c1ccc(Cl)c(Cl)c1,-22%,-4,1.1%,-7%,25,-2.9,7%
CCOC(=O)C1=C(COc2ccccc2)NC(=O)NC1c1ccc2ccccc2c1 (stereo not given),?,2,3.5%,.,.,.,2%
Cc1nc2ccccc2c(C)c1CC(=O)OC(C)C(=O)NC1(C#N)CCCCC1 (stereo not given),13%[15.4 µM],4,.,.,13,.,1%
COc1ccc(C)cc1NC(=O)c1ccc(NS(=O)(=O)c2cccs2)cc1,27%,-11,.,5%,8,3.7,?
COCCSc1ccccc1C(=O)NCCc1ccccc1,13%,.,-2.9%,56µM*,0,0.8,-2%
O=C(N/N=C/c1cc2c(cc1Br)OCO2)C1COc2ccccc2O1 (stereo not given),1%[15.4 µM],3,4.7%,1%,-3,-1.5,-14%
O=C(CN1CCN(Cc2cccc(F)c2)CC1)Nc1ccccc1F,29%,.,-0.2%,19%,-9,-6.3,-1%
CCOC(=O)CN1C(=N)N(c2nc(NC(C)C)nc(NC(C)C)n2)CC1=O,-6%,-1,0.2%,-4%,-44,7.8,10%
Cc1ccccc1-n1c(O)cc(=O)[nH]c1=S,-13%[15.4 µM],1,.,56µM*,1,18,4%
CS(=O)(=O)N(CCc1ccccc1)CC(=O)NCc1ccco1,2%,-10,-0.2%,15%,-16,-3.7,6%
O=C(Nc1nnc(SCc2c(Cl)cccc2Cl)s1)c1cccc([N+](=O)[O-])c1,1%[15.4 µM],8,.,9%,28,4.4,-1%
Oc1ccccc1-c1nnc2n1CCCCC2,-9%[15.4 µM],8,0.8%,-5%,4,2.8,6%
CC1CC1C(=O)Nc1nc(-c2ccc(Cl)s2)cs1 (stereo not given),15%[15.4 µM],-6,.,-18%,-3,2.2,-9%
COCCN(C(=O)c1ccc(C)o1)c1c(N)n(CC(C)C)c(=O)[nH]c1=O,-10%,-10,-3.7%,.,-2,.,18%
COc1ccc(N2CCN(C(=O)c3cn(C)c4ccc(S(=O)(=O)N5CCOCC5)cc4c3=O)CC2)cc1,-16%,.,0.5%&0.6%,1%,6,.,9%
CCCCNc1ccc(C(F)(F)F)cc1S(=O)(=O)NCCc1ccc(F)cc1,.,42,?,.,.,.,-6%
COc1ccccc1CNC(=O)COC(=O)CNS(=O)(=O)c1ccc(NC(C)=O)cc1,1%,.,-0.5%,.,-9,.,5%
CC1CCN(C(=S)NC(=O)c2ccccc2Br)CC1,-14%,1,1.5%,14%,-10,.,10%
Cn1cc(S(=O)(=O)N2CCOCC2)cc1C(=O)O,-4%,1,.,.,.,.,1%
CC(=O)NC(C(=O)c1ccccc1)N1CCCCC1 (stereo not given),-90%[inhibitor],-6,.,13%,-5,2.6,9%
Cc1ccc(CN2CCN(Cc3cccc(OCCO)c3)CC2CCO)o1 (stereo not given),11%[15.4 µM],-5,.,23%,-4,0.3,14%
O=C(O)CCCSc1nccn1-c1ccccc1,-2%[15.4 µM],0,.,10%,1,-2.8,3%
CN1CCN(S(=O)(=O)c2ccc(Br)c3ccccc23)CC1,?,-15,-2.0%,21%,1,2.9,4%
CCn1cc(/C=C/C(=O)Nc2ccc(C)cc2Br)cn1,0%[15.4 µM],-5,-2.0%,-4%,-10,1.9,4%
CCN=C1NN=C(c2c[nH]c3ccccc23)CS1,0%[15.4 µM],13,.,?,4,4.5,-6%
Cc1cc(O)c(C(C)C)cc1N=C1CSC(=O)N1,-37%[inhibitor],2,-0.1%,56µM*,-7,?,3%
COc1ccc(OC)c(S(=O)(=O)N2CCC(C(=O)Nc3ccccc3)CC2)c1,-32%[inhibitor],0,.,8%,8,2.8,3%
O=C(O)c1ccccc1C(=O)NC1CCCCNC1=O (stereo not given),4%[15.4 µM],3,.,13%,-13,-5.4,8%
CC1CCc2nn(CC(=O)NCCCN3CCCCC3)cc2C1 (stereo not given),?,6,0.6%,16%,-3,1.3,-1%
Cc1ccccc1CN(C)Cc1cc(=O)oc2c(C)c(C)ccc12,-3%[15.4 µM],11,.,-24%,3,-3.4,-17%
CCc1sc(N(C(=O)Cc2ccccc2)c2ccccc2F)nc1-c1ccc(C)cc1,-10%,.,-0.7%,16%,?,-4.4,7%
CCc1nnc(NC(=O)COC(=O)CN2C(=O)c3ccccc3C2=O)s1,3%,0,0.4%,4%,-5,1.9,1%
Cc1cnccc1CN(C)Cc1nc(Cc2ccccc2Cl)no1,8%[15.4 µM],5,.,-4%,-11,9.0,0%
C=CCNC(=O)c1onc(CSc2ccc(C)c(C)c2)c1C(=O)O,-7%,0,2.4%,-3%,4,1.3,-2%
CCCCOC(=O)C1=C(C)NC2=C(C(=O)CCC2)C1c1cc(OC)ccc1OC (stereo not given),1%,-14,-9.3%,14%,13,1.8,-7%
CN(CC/C=C1/c2ccccc2CSc2ccccc21)CCCO,5%,-3,0.5%,-15%,-27,.,10%
Cc1ccc(S(=O)(=O)N2CCN(C(=O)CN3C(=O)c4ccc([N+](=O)[O-])cc4C3=O)CC2)c(C)c1,?,1,2.1%,.,28,.,-18%
O=C(CSc1ccc(-c2cccs2)nn1)NCc1ccccc1Cl,.,.,.,-7%,-13,2.3,.
COc1ccccc1CNS(=O)(=O)c1ccc2c(c1)NC(=O)CS2,-11%,1,-0.5%,4%,-9,-0.9,9%
O=C(Cn1nnc(-c2ccccc2)n1)N/N=C/c1cccc([N+](=O)[O-])c1O,?,?,.,4%,5,8.2,-6%
O=C(Cn1cnc2c(cnn2-c2ccccc2)c1=O)N1CCN(c2ccc(F)cc2)CC1,-5%,9,-2.0%,15%,-16,3.5,5%
CC(=O)Nc1ccccc1NC(=O)c1ccc2c(c1)OCO2,-18%,1,-0.7%,.,.,.,.
CCCc1cc(=O)oc2cc(OCC(=O)NCCc3c[nH]c4ccc(OC)cc34)ccc12,.,-2,5.2%,24%,6,-2.1,-29%
O=C1CSC(=S)N1c1cccc(Br)c1,9%[15.4 µM],-19,-1.1%,3%,18,0.8,-1%
O=C(Nc1cccnc1)c1ccc(N2CCOCC2)c([N+](=O)[O-])c1,-15%,-5,-0.2%,22%,-23,2.1,-7%
Cc1ccc(C)c(NC(=S)NNC(=O)c2csc3c2CCC(C)C3)c1 (stereo not given),-84%[inhibitor],-21,1.4%,-1%,-4,0.5,?
COc1ccc(N2C(=O)CSC23C(=O)N(CC(=O)NC2CCCC2)c2ccccc23)cc1 (stereo not given),6%,0,0.5%,4%,8,-2.1,-7%
CC1(C)CC(=NO)CC(C)(C)N1,0%,8,-2.1%,-18%,-2,-0.8,4%
CC(=O)Nc1cc2c3c(c1)CCN3C(=O)CC2,12%,.,-6.8%,22%,9,0.4,-4%
Cc1cccc(C)c1NC(=O)CSc1nnc([C@@H]2CCCN2C(=O)OC(C)(C)C)o1,13%,7,-0.1%,2%,?,4.0,6%
Cc1cn(CC(=O)NCc2ccc(N(C)C)cc2)c(=O)[nH]c1=O,.,-5,-2.0%,.,.,.,-3%
COc1cc(C(=O)NCCC(=O)NC2CCCCC2)cc(OC)c1OC,?,2,0.6%,3%,0,.,-3%
CCN(c1ccccc1)S(=O)(=O)c1cc(NC(=O)Nc2ccccc2C#N)ccc1Cl,20%,-8,-9.3%,-3%,-1,0.5,4%
CCOC(=O)CC1=NN(c2ccccc2)C(=O)C1=c1sc(=C2SC(C)=C(C)N2CC)c(=O)n1CC,-1%[15.4 µM],-6,.,.,.,.,8%

# Going on with the list.
SMILES,gsp agonist,CtBP-E1A blk,ClpP mod,Sfp PPTase inh,TRPV1 potentiator,Menin-MLL FL inh,gsp antagonist
COC(=O)NNC(=O)C12CC3CC(CC(C3)C1)C2,-13%[15.4 µM],-10,-3.9%,19%,10,-2.4,-11%
CC(C)(C)C1CCc2c(sc3nc(SCC(=O)O)nc(N)c23)C1 (stereo not given),-3%[15.4 µM],8,.,-2%,2,2.9,-26%
CN=C(c1ccc([N+](=O)[O-])cc1)N1CCCCC1,19%,.,-1.6%,2%,0,0.3,-2%
COc1ccc(C=O)c(OC)c1,0%,-15,.,9%,-4,0.0,2%
COC(=O)C1C(c2ccccc2)C(C(=O)O)C1c1ccccc1 (stereo not given),10%,8,.,24%,0,-3.2,8%
Cc1nnc(SCC(=O)Nc2cccnc2Cl)s1,9%[15.4 µM],2,.,.,10,.,3%
Cc1cc(C(=O)N2CCCC(N3CCN(c4cccc(C(F)(F)F)c4)CC3)C2)no1 (stereo not given),-40%,-5,1.5%,10%,-2,.,4%
Cn1nc(C(=O)Nc2cc(Cl)ccc2N2CCCC2)c2ccccc2c1=O,-19%,-7,-3.3%,.,2,.,-7%
Cc1nc(SCc2ccc(Cl)c(Cl)c2)ncc1C(=O)O,-1%[15.4 µM],.,.,24%,23,-1.9,-20%
Cc1nn2c(=O)cc(CSCC(=O)Nc3ccccc3Cl)nc2s1,-8%,0,-1.0%,17%,-13,.,19%
O=C(NCCc1ccccn1)c1ccc(COc2ccccc2)o1,24%,2,-0.9%,-11%,1,4.8,-8%
CCOc1cc(N2CCOCC2)c(OCC)cc1NC(=O)c1ccc(C)s1,-86%[inhibitor],.,-0.8%,-18%,-21,-0.2,-21%
